# Source: PubChem
# Vaccinia inh: blocks a specific stage of Vaccinia orthopoxvirus infection. activity change (mCherry), % (test concentration not listed). 0.01% of 89,000 active. Vaccinia-infected cells, mCherry/Venus stage reporter fluorescence; stronger effect = lower value; some inactives read as strong as hits;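 active = mCherry past -33% and 40 or more points under the early reporter, replicates agreeing; inconclusive = past -33% without that gap or agreement; tested in A549 cells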;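 also: scaled between vehicle wells and reference inhibitor wells; 23 nL library stock went into each well; one replicate is shown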
# Vaccinia inh Venus: recorded beside Vaccinia inh, whose call it bears; activity change (Venus), %; measured here: Venus reporter, other viral stage;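 negative = less Venus signal; first of two replicates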
# Numbers without * were called inactive; u = inconclusive; x = not tested or not shown. These rows are one share of the data; the hit share may differ from the screen's.
Molecule,Vaccinia inh,Vaccinia inh Venus
CC(C)NC(=O)Nc1ccc2c(c1)C(=O)N([C@H](C)CO)C[C@@H](C)[C@H](CN(C)C(=O)Nc1ccc(C(F)(F)F)cc1)OCCCC[C@H](C)O2,-12,-6
COc1ccc(NC(=O)N(C)C[C@H]2Oc3ccc(NC(=O)Nc4ccccc4)cc3C(=O)N([C@@H](C)CO)C[C@@H]2C)cc1,2,8
CN1c2ccc(-c3ccccc3F)cc2[C@H]2[C@H](CCN2C(=O)CN2CCOCC2)[C@H]1CO,6,-10
C[C@@H]1CN([C@@H](C)CO)C(=O)Cc2cc(N(C)C)ccc2O[C@H]1CN(C)CC1CC1,17,1
CO[C@@H](CN(C)C(=O)Nc1ccc(F)cc1)[C@@H](C)CN(Cc1ccccc1Cl)[C@H](C)CO,-11,-3
COCCCNC(=O)[C@]1(Cc2ccccc2CN=[N+]=[N-])N=C(c2ccc(OCCCO)cc2)O[C@@H]1c1ccccc1,u,x
C[C@@H]1CN([C@H](C)CO)C(=O)Cc2cc(NC(=O)c3ccncc3)ccc2O[C@H]1CN(C)Cc1ccc(C(=O)O)cc1,35,16
C[C@@H](NC(=O)C[C@H]1C=C[C@H](NC(=O)C2CC2)[C@@H](CO)O1)c1ccccc1,-8,-1
CS(=O)(=O)N1[C@@H](C#N)[C@@H](c2ccccc2-c2ccccc2)[C@@H]1CO,-13,-13
CO[C@H]1CN(C)C(=O)c2cc(NC(=O)Nc3ccc(F)cc3)ccc2OC[C@@H](C)NC[C@@H]1C,-9,-16
C#Cc1ccc([C@H]2C=C(C(=O)N3CCN(Cc4ccccc4)CC3)O[C@@H](OCC)[C@@H]2CCCO)cc1,-18,-19
O=C(NC1CCCCC1)[C@@H]1[C@@H](CO)[C@@H]2Cn3c(cccc3=O)[C@@H]2N1CCc1ccccc1,3,-7
OC[C@H]1[C@H](c2ccc(C#Cc3ccccc3F)cc2)[C@H]2CN(Cc3cncnc3)CCCCN21,u,x
O=C([C@@H]1[C@@H](CO)[C@@H]2Cn3c(ccc(-c4ccncc4)c3=O)[C@@H]2N1Cc1cocn1)N1CCCCC1,22,21
CO[C@@H]1CN(C)C(=O)c2cc(NS(=O)(=O)c3c(C)noc3C)ccc2OC[C@H](C)NC[C@@H]1C,3,-2
COc1ccc2c3c(n(C)c2c1)[C@@H](CO)N(C)CC31CN(C(=O)c2ccccc2F)C1,6,6
O=C(Cc1ccncc1)N1CC(=O)N2[C@H](C1)[C@H](c1ccc(C3=CCCC3)cc1)[C@@H]2CO,12,9
Cc1ccc(-c2ccc(C3[C@@H]4CN(S(=O)(=O)c5ccc(C)cc5)C[C@H]3N4)cc2)cc1 (stereo partly specified),u,x
COc1ccc(S(=O)(=O)N(C)C[C@@H]2OCCCC[C@H](C)Oc3ccc(NC(=O)NC4CCCCC4)cc3C(=O)N([C@@H](C)CO)C[C@H]2C)cc1,8,6
CC(C)CC#Cc1ccc([C@@H]2[C@H](CO)N3C(=O)CN(C(=O)Cc4ccccc4)C[C@@H]23)cc1,-10,-13
CO[C@@H]1CN(C)C(=O)c2ccc(NC(=O)C3CCC3)cc2OC[C@H](C)N(C)C[C@@H]1C,-1,2
C[C@@H]1CN([C@H](C)CO)C(=O)c2cc(NS(=O)(=O)c3ccccc3)ccc2O[C@@H]1CN(C)C,17,11
COc1ccc(S(=O)(=O)Nc2ccc3c(c2)C(=O)N([C@@H](C)CO)C[C@H](C)[C@H](CN(C)Cc2ccncc2)OCCCC[C@@H](C)O3)cc1,14,-5
CCC(=O)N1CC(=O)N2[C@H](CO)[C@@H](c3ccc(C#CCC(C)C)cc3)[C@H]2C1,0,7
CC(=O)N(C)C[C@H]1Oc2ncc(C#Cc3ccccc3)cc2C(=O)N([C@H](C)CO)C[C@@H]1C,21,8
COc1ccccc1CNC(=O)C[C@H]1C[C@H]2c3cc(NC(=O)c4cccnc4)ccc3O[C@H]2[C@H](CO)O1,-4,0
Cc1noc(C)c1NC(=O)Nc1ccc2c(c1)C(=O)N([C@H](C)CO)C[C@@H](C)[C@H](CN(C)C(=O)Nc1ccc(F)cc1)OCCCC[C@H](C)O2,11,8
C[C@@H]1CCCCO[C@H](CN(C)C(=O)C2CCCCC2)[C@@H](C)CN([C@H](C)CO)C(=O)c2cc(NS(=O)(=O)c3ccc(Cl)cc3)ccc2O1,9,5
Cc1ccccc1S(=O)(=O)N1CC(=O)N2[C@H](CO)[C@H](c3ccc(C#Cc4ccccc4)cc3)[C@H]2C1,-8,-3
C[C@@H]1CN([C@@H](C)CO)C(=O)c2cccc(NC(=O)Nc3ccc4c(c3)OCO4)c2O[C@@H]1CN(C)C,3,-3
O=C(Nc1ccccc1F)N[C@@H]1CC[C@@H](CCNS(=O)(=O)c2ccc(Cl)cc2)O[C@@H]1CO,-14,-3
CO[C@@H]1CN(C)C(=O)c2cc(NC(=O)Nc3ccccc3F)ccc2OC[C@H](C)N(CC2CC2)C[C@@H]1C,3,2
CC(C)NC(=O)N1[C@H](CO)[C@H](c2ccc(-c3ccc(F)cc3)cc2)[C@@H]1C#N,-6,4
O=C(CCN1CCCCC1)NCC[C@H]1CC[C@@H](NC(=O)C2CCOCC2)[C@@H](CO)O1,18,19
CCCc1cn(CC[C@@H]2CC[C@@H](NC(=O)Nc3ccc4c(c3)OCO4)[C@H](CO)O2)nn1,11,15
O=C1O[C@H](c2ccccc2)[C@H](c2ccccc2)N2[C@H]1[C@@H](C(=O)N1CCCCCCC1)[C@]1(C(=O)Nc3ccc(C#CCCO)cc31)[C@H]2c1ccc(O)cc1,-2,-4
CCCNC(=O)Nc1ccc2c(c1)C(=O)N(C)C[C@@H](OC)[C@@H](C)CN(Cc1ccc(-c3ccccn3)cc1)[C@H](C)CO2,-31,-14
C[C@H](CO)N1C[C@H](C)[C@@H](CN(C)S(=O)(=O)c2cn(C)cn2)Oc2c(NC(=O)Nc3ccc(C(F)(F)F)cc3)cccc2C1=O,-7,-4
CCCC#Cc1ccc([C@H]2[C@@H](CO)N3C(=O)CN(C(=O)NC4CCCC4)C[C@@H]23)cc1,8,-2
CC(C)CC#Cc1cnc2c(c1)C(=O)N([C@@H](C)CO)C[C@H](C)[C@@H](CN(C)Cc1ccc(F)cc1)O2,-31,-17
COc1ccc(C#Cc2ccc3c(c2)[C@]2(C(=O)N3)[C@H](c3ccccc3OCCO)N3[C@H](c4ccccc4)[C@H](c4ccccc4)OC(=O)[C@H]3[C@@H]2C(=O)N2CCc3cc(OC)c(OC)cc3C2)cc1,-8,1
Cc1noc(C)c1NC(=O)N[C@H]1C=C[C@H](CC(=O)Nc2ccc(-c3ccccc3)cc2)O[C@@H]1CO,-6,0
CC(C)C#Cc1ccc2c(c1)O[C@@H](CN(C)C(=O)c1cnccn1)[C@H](C)CN([C@@H](C)CO)S2(=O)=O,1,6
Cc1cc(C(=O)Nc2cccc3c2O[C@@H](CN(C)C(=O)NC2CCCCC2)[C@H](C)CN([C@@H](C)CO)C3=O)n(C)n1,1,3
CCC(=O)Nc1ccc2c(c1)OC[C@H](C)N(C(=O)COC)C[C@@H](C)[C@H](OC)CN(C)C2=O,9,2
O=C(c1ccccn1)N1CC(=O)N2[C@H](C1)[C@H](c1ccc(C#Cc3ccccc3)cc1)[C@@H]2CO,-14,-22
C[C@@H]1CN([C@@H](C)CO)C(=O)CCCn2nncc2CO[C@@H]1CN(C)Cc1cccc2c1OCCCO2,-7,-7
Cc1noc(C)c1NC(=O)N(C)C[C@@H]1Oc2c(NC(=O)Nc3ccc(F)cc3)cccc2C(=O)N([C@H](C)CO)C[C@@H]1C,0,3
C[C@H]1CN([C@@H](C)CO)S(=O)(=O)c2ccc(-c3cccc(C#N)c3)cc2O[C@H]1CN(C)C(=O)c1ccccc1,-20,-21
C[C@H]1CN([C@@H](C)CO)C(=O)c2cc(NC(=O)NC3CCCCC3)ccc2O[C@H]1CN(C)Cc1ccc(Cl)c(Cl)c1,-18,-15
O=C1CN(S(=O)(=O)Cc2ccccc2)C[C@@H]2[C@H](c3ccc(C#CCC4CCCC4)cc3)[C@@H](CO)N12,u,x
COc1ccc(CN(C)C[C@@H]2OCCCC[C@@H](C)Oc3ccc(NC(=O)NC(C)C)cc3C(=O)N([C@H](C)CO)C[C@H]2C)cc1,-14,-1
COc1ccc(S(=O)(=O)N(C)C[C@@H]2Oc3ccc(NS(=O)(=O)c4ccc(F)cc4)cc3CC(=O)N([C@@H](C)CO)C[C@H]2C)cc1,-11,-9
C[C@@H](O)C#Cc1cnc2c(c1)C(=O)N([C@@H](C)CO)C[C@H](C)[C@@H](CN(C)C(=O)Nc1ccc(F)cc1)O2,13,15
C[C@H]1CN([C@@H](C)CO)C(=O)c2cc(C#CCN(C)C)cnc2O[C@H]1CN(C)C(=O)c1cccc(F)c1,10,-4
CC(C)c1cn(CC[C@H]2CC[C@H](NC(=O)c3cccc(F)c3)[C@@H](CO)O2)nn1,-4,-1
O=C(Nc1ccc(C(F)(F)F)cc1)N[C@@H]1C=C[C@@H](CC(=O)N2CCCCC2)O[C@@H]1CO,-10,-7
Cc1ccc(S(=O)(=O)Nc2ccc3c(c2)C(=O)N([C@@H](C)CO)C[C@H](C)[C@@H](CN(C)C(=O)Nc2ccc(C(F)(F)F)cc2)OCCCC[C@H](C)O3)cc1,-27,-27
COc1ccc(NC(=O)Nc2ccc3c(c2)[C@@H]2C[C@@H](CC(=O)NCCc4ccccc4)O[C@H](CO)[C@@H]2O3)cc1,13,14
C[C@@H]1CN([C@H](C)CO)C(=O)c2cc(NC(=O)NC3CCCCC3)ccc2O[C@@H](C)CCCCO[C@H]1CN(C)Cc1ccc(C(F)(F)F)cc1,-8,-9

# Complete entries, quoted from the list.
# `Cc1ccc(S(=O)(=O)Nc2ccc3c(c2)C(=O)N([C@@H](C)CO)C[C@H](C)[C@@H](CN(C)C(=O)Nc2ccc(C(F)(F)F)cc2)OCCCC[C@H](C)O3)cc1` is entered as Vaccinia inh = -27; Vaccinia inh Venus = -27
# `O=C([C@@H]1[C@@H](CO)[C@@H]2Cn3c(ccc(-c4ccncc4)c3=O)[C@@H]2N1Cc1cocn1)N1CCCCC1` is entered as Vaccinia inh = 22; Vaccinia inh Venus = 21

# Next compounds.
Molecule,Vaccinia inh,Vaccinia inh Venus
C[C@@H]1CN([C@H](C)CO)C(=O)c2cc(NS(C)(=O)=O)ccc2O[C@@H](C)CCCCO[C@H]1CN(C)S(=O)(=O)c1ccccc1,24,9
Cc1cccc(-c2ccc([C@H]3[C@H](CO)N4C(=O)CN(C(=O)c5ccccc5)C[C@@H]34)cc2)c1,4,-6
CN(C)C(=O)[C@@H]1[C@@H](CO)[C@@H]2Cn3c(ccc(-c4ccccc4F)c3=O)[C@@H]2N1C(=O)c1cnccn1,11,7
Cc1noc(C)c1S(=O)(=O)N(C)C[C@@H]1Oc2ccc(NS(=O)(=O)c3ccc(Cl)cc3)cc2C(=O)N([C@H](C)CO)C[C@@H]1C,-3,-1
CO[C@@H]1CN(C)C(=O)c2ccc(NC(=O)C3CCOCC3)cc2OC[C@@H](C)N(S(=O)(=O)c2ccc(Cl)cc2)C[C@H]1C,-4,2
Cc1ccc(S(=O)(=O)Nc2ccc3c(c2)C(=O)N([C@@H](C)CO)C[C@@H](C)[C@H](CN(C)Cc2ccc(Cl)c(Cl)c2)OCCCC[C@@H](C)O3)cc1,u,x
CO[C@@H]1CN(C)C(=O)c2cc(NC(=O)c3nc4ccccc4s3)ccc2OC[C@H](C)NC[C@@H]1C,-3,5
O=C1CN(S(=O)(=O)Cc2ccccc2)C[C@H]2[C@@H](c3ccc(C#Cc4ccccc4)cc3)[C@@H](CO)N12,-26,-16
COc1ccc2c3c(n(C)c2c1)[C@H](CO)N(C(=O)CC1CC1)CC31CCN(C(=O)CC2CC2)CC1,10,-4
CN1C(=O)c2cc(NC(=O)C3CC3)ccc2OC[C@H]2O[C@H](CC(=O)NC3CCC3)CC[C@@H]21,4,2

# Eleven entries out of the list, sorted by SMILES length, ascending:
Molecule,Vaccinia inh,Vaccinia inh Venus
O=C(Nc1ccc(C(F)(F)F)cc1)N[C@@H]1C=C[C@@H](CC(=O)N2CCCCC2)O[C@@H]1CO,-10,-7
CN1C(=O)c2cc(NC(=O)C3CC3)ccc2OC[C@H]2O[C@H](CC(=O)NC3CCC3)CC[C@@H]21,4,2
Cc1cccc(-c2ccc([C@H]3[C@H](CO)N4C(=O)CN(C(=O)c5ccccc5)C[C@@H]34)cc2)c1,4,-6
O=C1CN(S(=O)(=O)Cc2ccccc2)C[C@H]2[C@@H](c3ccc(C#Cc4ccccc4)cc3)[C@@H](CO)N12,-26,-16
CN(C)C(=O)[C@@H]1[C@@H](CO)[C@@H]2Cn3c(ccc(-c4ccccc4F)c3=O)[C@@H]2N1C(=O)c1cnccn1,11,7
COc1ccc(NC(=O)Nc2ccc3c(c2)[C@@H]2C[C@@H](CC(=O)NCCc4ccccc4)O[C@H](CO)[C@@H]2O3)cc1,13,14
CO[C@@H]1CN(C)C(=O)c2ccc(NC(=O)C3CCOCC3)cc2OC[C@@H](C)N(S(=O)(=O)c2ccc(Cl)cc2)C[C@H]1C,-4,2
C[C@@H]1CN([C@H](C)CO)C(=O)c2cc(NS(C)(=O)=O)ccc2O[C@@H](C)CCCCO[C@H]1CN(C)S(=O)(=O)c1ccccc1,24,9
C[C@@H]1CN([C@H](C)CO)C(=O)c2cc(NC(=O)NC3CCCCC3)ccc2O[C@@H](C)CCCCO[C@H]1CN(C)Cc1ccc(C(F)(F)F)cc1,-8,-9
Cc1ccc(S(=O)(=O)Nc2ccc3c(c2)C(=O)N([C@@H](C)CO)C[C@@H](C)[C@H](CN(C)Cc2ccc(Cl)c(Cl)c2)OCCCC[C@@H](C)O3)cc1,u,x
Cc1ccc(S(=O)(=O)Nc2ccc3c(c2)C(=O)N([C@@H](C)CO)C[C@H](C)[C@@H](CN(C)C(=O)Nc2ccc(C(F)(F)F)cc2)OCCCC[C@H](C)O3)cc1,-27,-27
